# Bioassay records (PubChem)
# Kir21 block = blocks the mouse Kir2.1 inward-rectifier potassium channel. P35561. HEK293-Kir2.1, FluxOR thallium flux fluorescence; active compounds read low. B-score at 10 µM. hit rate 0.85% among 310,000;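 active = fluorescence ratio B-score at or below minus 3 SD of library scores, with starting-brightness B-score within 2 SD, cut at about -4.2 in these data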;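 also: channel flux triggered by added potassium and thallium sulfate stimulus; B-score of peak minus minimum fluorescence over baseline after thallium stimulus; more negative B-score means stronger Kir2.1 block with less thallium influx; some compounds called inactive have numbers as strong as hits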
# Target sequence (P35561 whole entry, looked up): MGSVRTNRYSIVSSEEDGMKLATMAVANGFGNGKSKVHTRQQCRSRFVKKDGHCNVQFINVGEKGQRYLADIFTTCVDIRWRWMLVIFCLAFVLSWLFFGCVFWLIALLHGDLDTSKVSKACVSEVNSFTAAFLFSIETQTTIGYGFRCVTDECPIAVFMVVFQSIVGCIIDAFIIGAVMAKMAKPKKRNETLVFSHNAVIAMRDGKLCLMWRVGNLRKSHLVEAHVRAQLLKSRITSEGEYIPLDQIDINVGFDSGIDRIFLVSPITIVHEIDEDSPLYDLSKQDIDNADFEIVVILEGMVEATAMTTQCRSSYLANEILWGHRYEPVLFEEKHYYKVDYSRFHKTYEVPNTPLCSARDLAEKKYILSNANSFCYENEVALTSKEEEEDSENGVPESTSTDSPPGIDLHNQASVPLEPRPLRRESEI
# The depositor's hits bear a star. An excerpt, and most or all hits are left out here.
SMILES,Kir21 block
CCOc1ccccc1C(=O)N1CCN=C1SCc1cccnc1,0.07
CC(=O)Nc1ccc(NC(=O)CSc2nnc(NC(=O)C3CC(=O)N(c4ccccc4)C3)s2)cc1 (stereo not given),0.74
Cc1cc(C)cc(NC(=O)C2CCN(S(C)(=O)=O)CC2)c1,0.03
O=C(Cc1cccs1)N1CCN(c2ccc([N+](=O)[O-])cc2)CC1,0.41
COc1cc(/C=C(\C#N)C(=O)NCC2CCCO2)ccc1OCC(=O)O (stereo not given),1.1
O=C(O)c1nc(-c2ccccc2)n(-c2ccc(Cl)cc2)n1,-0.76
COC(=O)c1ccc(C)c(NC(=O)Cc2coc3cc(OC)ccc23)c1,0.64
CC(=O)c1c(C)[nH]c(C(=O)OCC(=O)NCCC(C)C)c1C,0.44
COc1ccccc1Nc1nnc(SCc2cc(=O)n3cc(C)ccc3n2)s1,1.2
Cn1nnnc1SCc1nnc(-c2ccc(F)cc2)o1,1.8
COCCNS(=O)(=O)c1ccc(C2CNC(=O)C2)cc1 (stereo not given),0.86
CC(=O)Nc1ccc2nc(NC(=O)COc3ccccc3)sc2c1,-0.33
CCOC(=O)C1=C(c2ccccc2)NC(=O)NC1c1ccc(OCC#N)c(OC)c1 (stereo not given),-0.02
CCc1ccc2nc(Nc3nc(COC)cc(=O)[nH]3)nc(C)c2c1,1.6
Cc1ccc(C(=O)O/N=C(\N)c2ccccc2)c(Cl)c1,0.08
Cn1c(=O)c2c(SCC(=O)N3CCCC3)nc(-c3ccccc3)nc2n(C)c1=O,-0.57
COc1ccc(NC(=O)CCNS(=O)(=O)c2cccc(C(C)=O)c2)cc1S(N)(=O)=O,0.02
Cc1cc(Nc2cc(F)ccc2C)n2ncnc2n1,-1.3
CC1CCN(C2(O)C(=O)Nc3ccc([N+](=O)[O-])cc32)CC1 (stereo not given),0.03
Cc1ccc(N=Nc2c(=O)[nH]n3c(=O)cc(C)[nH]c23)cc1,0.74
CCOc1cc(C(C#N)N2CCCCC2)ccc1OC (stereo not given),1.4
Cc1ccc(O)c(C(=O)c2coc(=N)c(C(=O)NC(C)C)c2)c1,-0.92
COC(=O)c1ccccc1NC(=O)Cn1cnc2c(cnn2-c2ccc(C)c(C)c2)c1=O,1.2
CC(C)Cn1cc(C(=O)NCC2CCCO2)c2c3ccccc3n(C)c2c1=O (stereo not given),0.79
COc1cc(CNn2c(C)n[nH]c2=S)cc(Br)c1OCC(=O)NC(C)(C)C,0.22

# (next part)
SMILES,Kir21 block
N=c1c(C(=O)NCCc2ccccc2)cc2c(=O)n3ccccc3nc2n1CCCN1CCOCC1,1.8
COc1cc(NS(=O)(=O)c2ccc(N/C=C(\C#N)c3nc4ccccc4o3)cc2)nc(OC)n1,0.22
CCc1nnc(NC(=O)C2CCC2)s1,0.59
COc1cc(-c2c(C#N)c(N)nc3c2c(C)nn3-c2ccc(C)c(C)c2)cc(OC)c1OC,-0.03
Cc1cc(C(=O)Nn2cnc3ccccc3c2=O)ccc1[N+](=O)[O-],0.98
Cc1cccc(Nc2cc(C)nc3ccccc23)c1,1
Cc1ccc(S(=O)(=O)NCC2CCCO2)cc1 (stereo not given),1.1
Cc1cc(C)cc(OCC(O)CN2C(=O)NC(C)(C)C2=O)c1 (stereo not given),-0.12
O=C(O)Cc1ccc(NC(=O)c2ccc3c(c2)C(=O)N(Cc2ccco2)C3=O)cc1,-0.5
Cc1cnc(NC(=O)Cc2c[nH]c3ccccc23)s1,0.02
CCOC(=O)c1sc2nc(C)nc(Nc3ccccc3)c2c1C,0.18
CCCn1c2ccccc2c2cnn(CC(=O)NC3CCN(Cc4ccccc4)CC3)c(=O)c21,-1.8
Cc1c(Cl)cccc1NC(=O)NCc1ccc(F)cc1,-0.54
COC(=O)c1ccccc1NC(=S)NC(=O)C1CC1,1.2
Cc1ccc(Nc2c(-c3ccc(C)o3)nc3ncccn23)cc1,0.1
COC(=O)c1nn(-c2nc(-c3cccc(OC)c3)cc(C(F)(F)F)n2)cc1[N+](=O)[O-],-1.2
NC(=O)c1nn(-c2ccccc2)nc1NC(=O)CSc1nnnn1-c1ccc(Cl)cc1,-0.02
O=S(=O)(Cc1noc(-c2ccccc2Cl)n1)c1ccccn1,-1
CC1CC(C)CN(S(=O)(=O)c2ccc(Cl)cc2)C1 (stereo not given),-1.1
O=S(=O)(c1cccc2nonc12)N1CCN(c2ccc(F)cc2)CC1,-0.03
Cc1ccccc1NC(=O)CCN1CCN(Cc2ccccc2)CC1,-0.99
CN1CCN(C(=O)C2CC(=O)N(c3ccc(F)c(Cl)c3)C2)CC1 (stereo not given),-0.86
Cc1[nH]c(=O)[nH]c1C(=O)CCCCC(=O)O,-0.14
COc1ccc(-n2nc(C(=O)NCC(=O)NC3CCCCC3)c3ccccc3c2=O)c(OC)c1,-0.03
CCOC(=O)C1CCN(C(=O)c2cccc(NC3=NC4CS(=O)(=O)CC4S3)c2)CC1 (stereo not given),-0.42

# Next records
SMILES,Kir21 block
Cn1cnc([N+](=O)[O-])c1Oc1ccccc1,1.5
O=C(O)/C=C/c1ccc(S(=O)(=O)N2CCN(CCN3C(=O)C4C5C=CC(C5)C4C3=O)CC2)cc1 (stereo not given),-0.28
Cc1ccc(NC(=O)Cc2ccc(-n3cccc3)cc2)c(C)c1,-0.73
NC(=O)NCCCC(=O)OCC(=O)c1ccc2ccccc2c1,-0.64
COc1ccc(NC(=S)N(CCCN2CCCC2)Cc2ccco2)cc1,0.1
O=c1c2[nH]c3ccc(F)cc3c2ncn1C1CCCCC1,-1.3
COC(=O)C1=C(C)N(C(C)C)C(=O)C1(NC(=O)C1CCCCC1)C(F)(F)F (stereo not given),1.4
COc1cccc(-c2cc(C(=O)N3CCOCC3)no2)c1,0.58
C=CCNc1nc(C(=O)OCC(=O)NCc2ccccc2OC)cs1,1.4
O=C(/C=C/c1ccccc1)NCCS(=O)(=O)N1CCN(c2ccccc2F)CC1,-2
CC1(C)CC(NC(=O)CC(c2ccccc2)c2ccccc2)CC(C)(C)N1,0.68
COc1ccc(NC(=O)C(Cc2cc(C)cc(C)c2)C(C)C(=O)O)cc1 (stereo not given),1.5
CCCn1c(C2CC(=O)N(c3cc(OC)ccc3OC)C2)nc2ccccc21 (stereo not given),-1.4
O=S(=O)(c1ccccc1)c1nc(-c2ccco2)oc1N1CCCCC1,0.02
CCN1CCN(Cc2nc3ccc([N+](=O)[O-])cc3c(=O)n2-c2ccc(OC)cc2OC)CC1,-0.1
Cc1cccc(NC(=O)CCOc2ccccc2)c1C,-0.61
COc1ccccc1NC(=O)c1ccccc1S(=O)(=O)c1ccc([N+](=O)[O-])cc1,0
Cc1ccc(S(=O)(=O)NCCC(c2ccccc2)c2ccccc2)cc1C(=O)O,-1.7
CN(CCO)Cc1csc2ccc(Br)cc12,-0.48
CC(C)Oc1ccc(C(=O)NC2=NCCS2)cc1,-2
Cc1ccc(NC(=O)CCC(=O)NNC(=O)c2ccco2)c(C)c1,-1.6
CC(C)N1CCC(N2CCN(CCCc3ccccc3)CC2CCO)CC1 (stereo not given),1.1
C=CCn1c(-c2cc(-c3ccccc3)sc2N)n[nH]c1=S,0.29
CCOC(=O)C(CC(=O)Nc1nc(C(C)=O)c(C)s1)C(C)c1ccccc1 (stereo not given),-0.51
CC(C)CC(=O)N1CCN(Cc2cccc(Cl)c2)CC1,-0.68

# Next part:
SMILES,Kir21 block
CCC1CCCCN1C(=S)Nc1ccc(SC(F)F)cc1 (stereo not given),-0.3
COc1cccc(NC(=O)C2CCN(S(=O)(=O)c3ccc4c(c3)OCCO4)CC2)c1,-1.5
O=C(CSc1nnnn1-c1ccc(Cl)c(C(=O)O)c1)NC(c1ccccc1)c1ccccc1,-1
O=C(COc1ccc2c(-c3ccccc3)cc(=O)oc2c1)NCc1cccs1,0.95
COc1ccc2[nH]c(=O)c(CN(c3ccccc3OC)S(=O)(=O)c3ccccc3)cc2c1,-1.1
CN(C)c1cccc(C(=O)Nc2nc3ccccc3[nH]2)c1,-0.9
Cc1ccc(NC(=O)C(C)OC(=O)CCN=C2NS(=O)(=O)c3ccccc32)cc1 (stereo not given),0.23
O=C(O)c1ccc2c3c(ncnc13)-c1ccccc1C2=O,0.34
Cc1cc(C(=O)N2CCCC(N3CCN(c4cccc(Cl)c4)CC3)C2)no1 (stereo not given),1.6
CCNC(=S)N1CCN(S(=O)(=O)c2cccc(C(F)(F)F)c2)CC1,-1.3
Cc1ccc(-n2c(C)cc(C(=O)CSc3n[nH]c(N)n3)c2C)cc1,0.32
Cn1cnnc1SCC(=O)c1ccco1,1.7
CCC(CC)C(=O)NCc1ccc(Cl)cc1,0.02
COC(=O)c1cc(S(=O)(=O)N2CCN(c3ccc(C(C)=O)cc3)CC2)c[nH]1,-1.1
Cc1cc(C)n2c(SCC(=O)Nc3ccc(F)cc3F)nnc2n1,-0.73
CC(C)C(C)NC(=O)CN1C(=O)NC(C)(c2ccc3ccccc3c2)C1=O (stereo not given),1.3
Cc1ccn(CCC(=O)NC2CCCc3c2cnn3-c2cccc(C)c2C)n1 (stereo not given),-0.58
CCS(=O)(=O)N1CCCC(C(=O)NCc2ccc3c(c2)OCO3)C1 (stereo not given),-1.1
CCOC(=O)c1sc(C)c2c1NC(C)(c1ccccc1)NC2=O (stereo not given),0.68
Cc1cc2c3c(c1)C1(C(=O)N3C(C)(C)CC2C)C(C#N)=C(N)Oc2cc(O)ccc21 (stereo not given),-2.4
Cc1ccc(NC(=O)CCNC(=O)c2ccc(Br)cc2)cc1S(=O)(=O)N1CCOCC1,0.47
N#C/C(=C/c1cn(CC(=O)O)c2ccccc12)C(=O)Nc1ccccc1,-1
CCOc1ccc(NC(N)=O)cc1OCC,0.81
CCOC(=O)CNC(=O)c1sc(NC(=O)c2ccccc2F)nc1C,0.08
Cc1ccc(CNC(=O)c2ccc(C#CC(C)(C)O)s2)cc1,-1.7

# Additional compounds:
SMILES,Kir21 block
COc1ccccc1N1C(=O)CC(N(O)c2ccccc2)C1=O (stereo not given),0.24
CCCNC(=S)N1CCC(NC(=O)C2CCCCC2)CC1,0.2
C=CCSc1nc2c(c(=O)[nH]c(=O)n2C)n1Cc1ccccc1,-0.51
Cc1ccc(C(=O)N/C(=C/c2ccc(-c3ccc(Br)cc3)o2)C(=O)NC2CCS(=O)(=O)C2)cc1 (stereo not given),1.7
CCOC(=O)C(C(=O)NCCCN1CCOCC1)C1CCCCC1 (stereo not given),2
Cc1cccc(N2CCN(C(=S)NC3CCCCC3)CC2)c1C,1.1
COc1ccccc1/C=C1\SC(=S)N(NS(=O)(=O)c2ccc(C)cc2)C1=O,1.1
CC(C)(C)c1ccc(NC(=O)c2ccc3c(c2)S(=O)(=O)c2ccccc2C3=O)cc1,-0.46
CC(=O)Nc1cccc(C(=O)OCc2ccccc2)c1,-1.2
O=c1ccc(=O)n(-c2ccccc2)[nH]1,1.2
Cc1ccc(C(=O)COC(=O)CN2C(=O)C3C4CCC(C4)C3C2=O)cc1[N+](=O)[O-] (stereo not given),-0.48
COc1nc(-c2ccccc2)c2c(c1C#N)CC(C)(C)OC2,-0.02
CS(=O)(=O)c1ccc(-c2cc(Br)sc2-c2ccc(F)cc2)cc1,-0.97
CCc1cccc(NC(=O)CCNS(=O)(=O)c2cc(Br)cnc2N)c1,2.5
COCCNC(=O)CN(C(=O)CCC(=O)Nc1ccccn1)c1ccc(C)c(C)c1,2.7
Cc1ccc(Oc2ncccc2N)c2c1CCC2,-1.5
Nn1c(Cc2cccc3ccccc23)nnc1SCc1c(Cl)cccc1Cl,-0.71
CCOC(=O)CNC(=O)c1cn(CC)c(=O)c2cc(OC)c(OC)cc12,-0.22
COc1ccc(NC(=O)c2ccc(NC(=O)CCS(=O)(=O)c3cccs3)cc2)cc1,-0.36
CCOC(=O)c1nc(NCc2ccccc2C)c2ccccc2n1,-0.96
O=C(CSCc1ccc([N+](=O)[O-])cc1)N/N=C/c1ccncc1,0.96
COC(=O)C1=C[C@@H](C(=O)OC)[C@@H]2C3=C(C(=O)[C@@]2(C)NC(=O)c2ccccc2)[C@H](C)n2c(=O)n(C)c(=O)n2[C@@H]3C1,-0.03
O=C(CCCn1c(SCC(=O)Nc2ccccc2C(F)(F)F)nc2ccccc2c1=O)NCC1CCCO1 (stereo not given),-1.6
Cn1c(Cn2cnc([N+](=O)[O-])n2)nnc1SCC(=O)Nc1cccc(Cl)c1,0.15
c1nc(N2CCOCC2)c2[nH]cnc2n1,-1.3
CS/C(=N\S(=O)(=O)c1cccs1)Nc1ccc(F)cc1,0.08
O=C(CNC(=O)c1ccc2c(c1)OCO2)N/N=C/c1cccc([N+](=O)[O-])c1,-1.8

# For convenience, part of the list above:
SMILES,Kir21 block
NC(=O)c1nn(-c2ccccc2)nc1NC(=O)CSc1nnnn1-c1ccc(Cl)cc1,-0.02
O=S(=O)(Cc1noc(-c2ccccc2Cl)n1)c1ccccn1,-1
CC1CC(C)CN(S(=O)(=O)c2ccc(Cl)cc2)C1 (stereo not given),-1.1
O=S(=O)(c1cccc2nonc12)N1CCN(c2ccc(F)cc2)CC1,-0.03
Cc1ccccc1NC(=O)CCN1CCN(Cc2ccccc2)CC1,-0.99
CN1CCN(C(=O)C2CC(=O)N(c3ccc(F)c(Cl)c3)C2)CC1 (stereo not given),-0.86
Cc1[nH]c(=O)[nH]c1C(=O)CCCCC(=O)O,-0.14
COc1ccc(-n2nc(C(=O)NCC(=O)NC3CCCCC3)c3ccccc3c2=O)c(OC)c1,-0.03
CCOC(=O)C1CCN(C(=O)c2cccc(NC3=NC4CS(=O)(=O)CC4S3)c2)CC1 (stereo not given),-0.42
Cn1cnc([N+](=O)[O-])c1Oc1ccccc1,1.5
O=C(O)/C=C/c1ccc(S(=O)(=O)N2CCN(CCN3C(=O)C4C5C=CC(C5)C4C3=O)CC2)cc1 (stereo not given),-0.28
Cc1ccc(NC(=O)Cc2ccc(-n3cccc3)cc2)c(C)c1,-0.73
NC(=O)NCCCC(=O)OCC(=O)c1ccc2ccccc2c1,-0.64
COc1ccc(NC(=S)N(CCCN2CCCC2)Cc2ccco2)cc1,0.1
O=c1c2[nH]c3ccc(F)cc3c2ncn1C1CCCCC1,-1.3
